RecA intein inh = inhibitors of M. tuberculosis RecA intein splicing | P9WHJ3 | inhibition, %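 (about 9 µM by stock and volumes)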 | 290,000 compounds, 0.75% hits | cell-free RecA intein splicing, fluorescence; in the data active = inhibition above about 30%; inconclusive = no clear call, values can overlap the other calls;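 note: 0% = vehicle wells and 100% = reference inhibitor control wells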
Target sequence (P9WHJ3 whole entry, looked up): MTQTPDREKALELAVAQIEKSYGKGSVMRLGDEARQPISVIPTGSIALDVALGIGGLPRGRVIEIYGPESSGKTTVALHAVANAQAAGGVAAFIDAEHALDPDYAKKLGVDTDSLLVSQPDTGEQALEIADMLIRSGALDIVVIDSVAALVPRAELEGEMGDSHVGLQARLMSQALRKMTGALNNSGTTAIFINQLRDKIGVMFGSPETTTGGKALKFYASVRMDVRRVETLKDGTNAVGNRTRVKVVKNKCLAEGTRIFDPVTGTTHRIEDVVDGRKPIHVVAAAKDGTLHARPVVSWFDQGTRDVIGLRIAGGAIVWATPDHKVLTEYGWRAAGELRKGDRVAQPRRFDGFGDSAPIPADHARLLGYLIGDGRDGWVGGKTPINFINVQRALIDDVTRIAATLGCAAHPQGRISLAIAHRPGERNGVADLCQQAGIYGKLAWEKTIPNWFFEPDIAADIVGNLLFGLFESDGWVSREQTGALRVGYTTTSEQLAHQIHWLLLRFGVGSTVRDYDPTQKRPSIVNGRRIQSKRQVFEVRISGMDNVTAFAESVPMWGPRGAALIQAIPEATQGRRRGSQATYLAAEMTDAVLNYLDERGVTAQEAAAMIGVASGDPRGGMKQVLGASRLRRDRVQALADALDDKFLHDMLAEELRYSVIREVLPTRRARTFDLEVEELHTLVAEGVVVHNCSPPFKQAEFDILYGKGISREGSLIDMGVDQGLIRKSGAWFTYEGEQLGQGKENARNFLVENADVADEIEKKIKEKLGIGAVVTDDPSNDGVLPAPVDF
Arbovirus inh = blocks arbovirus infection; inhibition, % at 10 µM; 200,000 compounds, 0.37% hits; AID 1251; arbovirus infection cell-based antiviral screen;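 active = inhibition from about 30%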;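 note: bluetongue infection of BSR cells; cell survival read as ATP light after 72 h; 0% = infected wells without compound and 100% = uninfected wells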
Mtb growth = M. tuberculosis H37Rv growth inhibitors, H37Rv strain (AID 1626). 220,000 compounds, 0.95% hits. M. tuberculosis H37Rv growth inhibition; higher % means a stronger effect. one-dose inhibition, % at 10 µM; IC50 in µM for titrated hits;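 active = confirmed in a dose series; inconclusive = inhibition above 80% but not taken into the dose series; inactive = below 80% or under 30% at every dose of the series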;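 note: bacteria incubated seven days before Alamar blue readout; 0% = bacteria only wells and 100% = bacteria with antibiotic wells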
YopH inh = inhibitors of Yersinia enterocolitica YopH tyrosine phosphatase; inhibition, %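 (about 10 µM by stock and volumes)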; 140,000 compounds, 0.16% hits; AID 898; fluorescence Ex485/Em525;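 active = inhibition of 50% or more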;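 note: controls were vehicle for no effect and minimum signal wells for full effect; inactives centre near -20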
Mtb bLac sens = beta-lactam sensitization of Mtb H37Rv; M. tuberculosis H37Rv growth with meropenem, percent inhibition; hits of this screen are not shown here; 330,000 compounds, 0.27% hits; inhibition, % at 25 µM; AID 434955;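 active = about 74% or more and at least 40 points above the plate without the antibiotic, then above 30% in a dose series; inconclusive = first-round hits that could not be retested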;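 note: growth measured after seven days incubation then overnight dye step; 0% = bacteria only wells and 100% = bacteria with antibiotic; twin plates without the antibiotic show which effects depend on it; some results filed as inactive read as strong as hits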
Arbovirus inh repeat = also measured in Arbovirus inh; calls as there; inhibition, %; measured here: 10K subset replicate screen; many hits read low in the repeat;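 first of two repeat runs on a subset; 0% = infected and 100% = uninfected wells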
Starred values were filed as active, the others as inactive; i = inactive; ? = inconclusive; / = no result given. A portion of the library; count on the stated rates, not on these rows.

SMILES	RecA intein inh	Arbovirus inh	Mtb growth	YopH inh	Mtb bLac sens	others
Cc1cc(S(=O)(=O)N2CCCC(N(C)CCc3ccccn3)C2)c(C)cc1Cl (centres undefined)	-0.5	/	/	/	12
COc1ccc2cnn(-c3ccc(C)cc3)c(=O)c2c1OC	0.0	-4	-4%	4	-1
CCOc1cc(NC(=O)c2ccccc2[N+](=O)[O-])c(OCC)cc1NC(=O)CC(C)C	-0.3	-11	-6%	-17	-4
Cc1ccc2cc(CCNC(=O)c3ccc(S(=O)(=O)N4CCOCC4)cc3)c(=O)[nH]c2c1C	-0.4	/	/	/	4
Cn1nc(-c2ccc(C(=O)O)cc2)c2ccccc2c1=O	-0.5	0	-6%	6	-10
CCc1cccc(NC(=O)CCc2c(C)nn(-c3ccc(N4CCCCC4)nn3)c2C)c1	4.0	/	/	/	11
CC(C)OC(=O)CSc1nnc(CNc2ccc(Cl)cc2)n1C	-1.7	1	-1%	/	4
CN(CC(=O)Nc1ccc(F)cc1)C(=O)COc1ccc(C(=O)c2ccccc2)cc1	2.3	5	9%	-12	7
CC(CCc1ccccc1)NC(=O)c1ccccc1 (centres undefined)	3.4	-4	0%	-4	3
COc1cc(C2NC(=O)NC(C)=C2C(=O)OC2CCCC(C)C2)cc(Br)c1O (centres undefined)	22	/	/	/	5
CC(=O)c1c(COC(=O)c2ccncc2)nc2ccccc2[n+]1[O-]	9.1	1	-10%	-7	-13
Clc1ccc(-n2nnnc2-c2ccccc2)cc1Cl	/	-4	-9%	-23	3
Cc1cc(-c2nnc(CCC(=O)N(C)C(C)c3cccs3)o2)no1 (centres undefined)	-0.9	/	8%	/	-7
Cn1cnnc1SCC(=O)Nc1ccc(N2CCOCC2)cc1	-5.4	9	5%	/	-9
c1coc(CN(Cc2cccs2)Cc2nnnn2C2CCCCC2)c1	8.4	1	1%	2	-2

Continued; it opens with the six that closed the last part.
SMILES	RecA intein inh	Arbovirus inh	Mtb growth	YopH inh	Mtb bLac sens	others
COc1cc(C2NC(=O)NC(C)=C2C(=O)OC2CCCC(C)C2)cc(Br)c1O (centres undefined)	22	/	/	/	5
CC(=O)c1c(COC(=O)c2ccncc2)nc2ccccc2[n+]1[O-]	9.1	1	-10%	-7	-13
Clc1ccc(-n2nnnc2-c2ccccc2)cc1Cl	/	-4	-9%	-23	3
Cc1cc(-c2nnc(CCC(=O)N(C)C(C)c3cccs3)o2)no1 (centres undefined)	-0.9	/	8%	/	-7
Cn1cnnc1SCC(=O)Nc1ccc(N2CCOCC2)cc1	-5.4	9	5%	/	-9
c1coc(CN(Cc2cccs2)Cc2nnnn2C2CCCCC2)c1	8.4	1	1%	2	-2
Cc1c(C(=O)c2ccc([N+](=O)[O-])cc2)c(=O)n(C)c(=O)n1C	-0.7	-4	2%	/	-2
O=C(Nc1ccc2c(c1)OCO2)c1cccc(Cl)c1	3.9	-10	6%	3	-9
CC(C(=O)N1CCCc2ccccc21)N1CCN(S(=O)(=O)c2ccccc2F)CC1 (centres undefined)	-5.9	4	-5%	-6	-14
O=C(Nc1ccccc1)c1ccn[nH]1	-2.5	-4	-8%	-12	0
Cc1nc2ccccn2c1C(=O)Nc1ccc(Cl)cc1	-1.9	-2	6%	/	3
CC(C)C(=O)NNC(=O)c1ccccn1	-2.6	-30	6%	-22	3
COc1cnc(SC(C)C)[nH]c1=O	-1.6	-1	6%	/	9
Cc1cccc(C(=O)NC(C(=O)Nc2ccccc2N2CCOCC2)C(C)C)c1 (centres undefined)	-0.8	-3	1%	/	4
CCC(c1ccccc1)c1nc(-c2cccnc2)no1 (centres undefined)	-2.4	-9	6%	-17	9
N#C/C(=C\C=C\c1ccccc1[N+](=O)[O-])C(=O)NC1CCCCC1	-5.3	-25	19%	/	65
O=C(CCS(=O)(=O)c1ccc(Br)cc1)Nc1ccc(Br)cc1F	0.8	3	6%	-11	0
CCOC(=O)c1c(C)[nH]c(C(=O)CSc2nnnn2-c2ccccc2)c1C	1.1	-7	-5%	-34	0	Arbovirus inh repeat=-9
COc1ccc(OCC(=O)Nc2ccc(N3CCN(C(=O)c4ccco4)CC3)cc2)cc1	0.8	-25	-6%	/	2
CCN(CC)S(=O)(=O)c1ccc2c(c1)N(CC(=O)NCCCN1CC(C)CC(C)C1)C(=O)CO2 (centres undefined)	7.4	/	/	/	-1
CCN(CC)c1ccc2c(O)cc(=O)oc2c1	-2.4	-8	3%	/	-3

The final 4 entries of the part before come first, to join the parts:
SMILES	RecA intein inh	Arbovirus inh	Mtb growth	YopH inh	Mtb bLac sens	others
CCOC(=O)c1c(C)[nH]c(C(=O)CSc2nnnn2-c2ccccc2)c1C	1.1	-7	-5%	-34	0	Arbovirus inh repeat=-9
COc1ccc(OCC(=O)Nc2ccc(N3CCN(C(=O)c4ccco4)CC3)cc2)cc1	0.8	-25	-6%	/	2
CCN(CC)S(=O)(=O)c1ccc2c(c1)N(CC(=O)NCCCN1CC(C)CC(C)C1)C(=O)CO2 (centres undefined)	7.4	/	/	/	-1
CCN(CC)c1ccc2c(O)cc(=O)oc2c1	-2.4	-8	3%	/	-3
COc1cc(OC)c(S(=O)(=O)NC(C)C)cc1C(=O)O	0.9	/	-9%	/	-5
NC(=O)C1CCN(C(=O)OCc2ccccc2)CC1	-1.8	1	-12%	-33	-11
O=C(NC1CCSc2ccccc21)c1cccc(Cl)c1 (centres undefined)	1.6	/	/	/	9
CC1CN(C(=O)c2cc3ccccc3cc2O)CC(C)O1 (centres undefined)	-2.3	/	/	/	0
CCOc1ccc(-c2cnc3ccccc3n2)cc1	-3.0	/	6%	/	67
COc1ccc(C(=O)NCc2nnc(SCC(=O)NC3CCCC3)o2)cc1	-1.6	/	/	/	0
CCn1c(SCC(=O)Nc2nc(C)cs2)nnc1-c1ccoc1C	6.2	8	-14%	-6	-5
COc1cc(/C=C/C(=O)OCC(=O)NC(=O)NC(C)C)cc(OC)c1OC	0.1	10	-1%	/	2
O=C(CNC(=O)c1sc2ccccc2c1Cl)NCc1ccc(F)cc1	-1.9	/	/	/	-4
CCNC(=S)Nc1cccc(S(=O)(=O)Nc2ccccc2OC)c1	0.1	/	-1%	/	-11
Cc1ccc(NC(=O)c2c(NC(=O)CCC(=O)O)sc3c2CCCCC3)cc1	-3.2	-7	-3%	/	1
COC(=O)C1=C(N)OC2=C(C(=O)CC(C)(C)C2)C1c1cccnc1 (centres undefined)	0.4	0	-2%	-13	6	Arbovirus inh repeat=3
C#CCNc1ccncc1S(=O)(=O)NC(=O)NC(C)C	0.4	2	1%	-14	4
Cc1cc(NC(=O)CSc2nc(=O)n(CCCN(C)C)c3c2CCCC3)no1	-0.3	/	/	/	-8
CN1C(=O)C(O)(CC(=O)c2ccncc2)c2ccccc21 (centres undefined)	-3.0	-9	3%	0	0
COc1ccc(-c2nc(CN3CCC(C(=O)N4CCc5ccccc54)CC3)c(C)o2)cc1OC	3.0	3	7%	/	1
O=C(N/N=C/c1ccc(Br)s1)c1ccco1	3.6	/	-9%	/	68
COc1ccc(C2CC(c3ccccc3)=NN2C(=O)COC(=O)c2cnc(Cl)c(Cl)c2)cc1 (centres undefined)	0.7	-5	8%	-40	-1
Cc1ccc(NS(=O)(=O)c2cccc(C(=O)n3ncc(C#N)c3N)c2)c(C)c1	3.8	6	-4%	-14	-1
Cc1ccc(-n2ncc3c(SCC(=O)Nc4cc(C)on4)ncnc32)c(C)c1	-4.3	0	0%	/	2
CCCCn1c(-c2ccc(C(C)(C)C)cc2)nc2cc3[nH]c(=O)c(C(C)C)nc3cc21	10	/	/	/	3
O=C(CCCCCNC(=O)c1ccccc1)N/N=C/c1ccccc1	1.3	-6	6%	-37	7
O=C(c1ccc([N+](=O)[O-])cc1)N1CCN(C2=NS(=O)(=O)c3ccccc32)CC1	-0.8	/	/	/	-8
COc1ccc(/C=C/c2c(-c3ccc(OC)cc3)oc3cccnc23)cc1	-1.8	/	/	/	4
CCOc1cc(/C=C(\C#N)C(=O)NCc2cccnc2)ccc1O	6.5	4	-7%	/	-1
NC1=NC(=O)/C(=C/c2ccc(-c3ccc(S(N)(=O)=O)cc3)o2)S1	-7.1	/	/	/	1
CN(C)CCCNC(=O)c1ccccc1Oc1ccccc1	/	/	6%	/	5
COCC(C)NC(C(=O)Nc1ccc(Cl)c([N+](=O)[O-])c1)c1ccccc1 (centres undefined)	-1.2	4	-10%	-23	7
Cc1ccc(NC(=O)C2COc3ccccc3O2)cc1 (centres undefined)	-0.3	/	/	/	1
CCc1ccc(C(=O)/C=C/Nc2ccc(S(=O)(=O)Nc3onc(C)c3C)cc2)cc1	-5.0	0	12%	-55	25
COc1cccc(C2(c3cccc(OC)c3)CC2C(=O)Nc2cccc3ccccc23)c1 (centres undefined)	-1.7	1	8%	-34	5
Cc1ccc(C(=O)N2CCCC(N3CCN(c4cccc(C(F)(F)F)c4)CC3)C2)s1 (centres undefined)	11	/	/	/	93
Cc1ccc(CN2CCC(c3cc(-c4cccs4)n[nH]3)CC2)cc1	-6.2	22	7%	/	1
CCOc1ccc2nc(N(CCCN(C)C)C(=O)c3ccc(C(=O)c4ccccc4)cc3)sc2c1	4.3	/	/	/	25
Cn1ncc(Cl)c1C(=O)N/N=C/c1ccccn1	-1.9	-1	-2%	-40	-6
CCn1c(COc2ccccc2C)nnc1SCC(=O)O	0.6	-1	-2%	-35	4
CCn1nnnc1NC(=O)c1ccc2ccccc2c1	-0.6	4	-7%	/	-3
COc1ccc(C)cc1S(=O)(=O)Nc1cc2c3c(c1)CCN3C(=O)CC2	-1.2	/	/	/	-12
c1cnc2ccc(C(c3nnnn3C3CCCC3)N3CCN4CCCC4C3)cc2c1 (centres undefined)	-2.4	1	-2%	-35	-5
COc1cc2c(cc1OC)C(C)N(C(=O)c1ccc(Cl)c(S(=O)(=O)N3CCCCC3)c1)CC2 (centres undefined)	8.5	/	/	/	1
CCOc1ccc(CCNC(=O)C2CC=CCC2C(=O)OC(C)C)cc1OCC (centres undefined)	-1.0	/	/	/	-5
O=C(CCN1C(=O)/C(=C\c2ccccc2)SC1=S)NCCCN1CCOCC1	-0.5	/	/	/	?
O=C(c1ccc(COc2ccccc2Br)cc1)N1CCCCCC1	16	-10	7%	/	5
Cc1ccc(Oc2cnc3ccccc3n2)cc1	-5.8	15	10%	-50	-1
CC(=O)Nc1ccc(OCC(O)CN2CCN(c3cccc(Cl)c3)CC2)cc1 (centres undefined)	0.9	-6	-1%	-77	1
N/C(Cc1ccc(Cl)c(Cl)c1)=N\OC(=O)c1cccs1	2.3	-10	5%	-5	9
Cc1scc(C(=O)N/N=C/c2ccc(Cl)s2)c1C	-1.4	-12	6%	-20	2
c1ccc(Cc2nnc3sc(-c4cccnc4)nn23)cc1	0.5	-4	-6%	10	-3
Cc1cc(Nc2ccccc2)n(C(=O)c2ccccc2)n1	4.6	4	/	-1	-4
O=S(=O)(Cc1cc(-c2ccccc2Cl)no1)c1ccccc1	3.7	-1	5%	/	7
Cc1ccc(NC(=O)CNc2ccc(OC(C)C)cc2)c(C)c1	3.4	-11	47%	-7	84
Nc1nc2nc(-c3cccs3)cc(C(F)(F)F)n2n1	i	-3	4%	/	-3
CNC(=O)c1ccc(NC(=O)Nc2ccccc2)cc1	-3.3	/	/	/	0
Nc1nc(SCc2nc3scc(-c4cccs4)c3c(=O)[nH]2)n[nH]1	0.4	-1	-3%	-6	24
CCN1CCCC1CNC(=O)C(=O)NCCc1ccc(OC)c(OC)c1 (centres undefined)	-1.2	0	5%	/	-1
COc1ccccc1NS(=O)(=O)c1ccc2oc(SCC(C)=O)nc2c1	-0.7	/	/	/	-1
COc1ccccc1NC(=O)c1csc2c1CCCC2	6.5	12	-5%	-35	20
COc1ccc(OC)c(Nc2nc(NCCC(C)C)nc(N)c2[N+](=O)[O-])c1	-1.9	/	9%	/	34
Cc1ccc(N(C(=O)CCl)C(C(=O)NC2CCCCC2)c2cccnc2)cc1C (centres undefined)	72*	-29	24%	-26	43
CCOc1ncccc1C(=O)OCC(=O)N1CCN(S(=O)(=O)c2ccc(Cl)cc2)CC1	-2.9	-2	-2%	-26	-2
Next section.
SMILES	RecA intein inh	Arbovirus inh	Mtb growth	YopH inh	Mtb bLac sens	others
CCN(CC)c1ccc(C(=O)N/N=C(\C)c2cccc(OC)c2)cc1	1.3	-25	3%	-3	9
N#Cc1cncc(-c2ccc3c(c2)OCCOCCOCCOCCOCCO3)n1	2.1	0	6%	-28	-2
CCN(CC)c1ccc(/C=N/NC(=O)Cc2cccs2)cc1	-2.5	-3	4%	-14	4
COc1ccc2c(c1)N(C)C(=O)CC(c1ccccc1)=N2	-0.1	-9	8%	-23	71
Cc1ccc(N(Cc2cc3cc(C)ccc3[nH]c2=O)S(=O)(=O)c2ccccc2)cc1	-0.5	-11	-4%	-6	1
Brc1ccc(N=C/C=C/C=C/Nc2ccc(Br)cc2)cc1	/	-8	-10%	29	-2

Screening results from PubChem.
